Assay outcomes: PubChem, ICCB-Longwood Screening Facility, Harvard Medical School
S aureus helic: S. aureus DNA helicase inhibition | purified S. aureus helicase, fluorescence unwinding assay; about half of the hits fall short of the stated cut | inhibition, %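 (tested at about 80 µM)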 | actives 0.05% (n = 120,000) | AID 485395;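 active means both duplicates at 50% or more, or one of them with a favoured structure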;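 further: 0% = mean of negative control wells and 100% = mean of positive control wells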
MgrA-DNA mod: S. aureus MgrA-DNA binding modulation. fluorescence polarization. inhibition, %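 (about 10 µg/mL by stock and volumes)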. actives 0.13% (n = 84,000). AID 602314;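 active means above 50% in either of two replicates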;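 further: 0% = protein plus DNA without compound and 100% = DNA alone without protein; higher means less MgrA bound to DNA so lower polarization; one replicate is shown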
* hit, by the source's call; / = no result given. These rows are one share of the data, so the mix of outcomes need not match the whole.

mol	MgrA-DNA mod	S aureus helic
O=C(O)c1ccccc1C(=O)Nc1ncccc1OCc1ccc(Cl)c(Cl)c1	1.1	/
CCOC(=O)c1cc(-c2ccc(S(=O)(=O)N(C)CCCc3ccco3)s2)on1	/	17.0
O=C(OC1CCCCC1=O)c1ccc2c(c1)C(=O)N(Cc1ccco1)C2=O (centres undefined)	/	-3.0
CC(=O)NC(c1ccccc1)n1nnc2ccccc21 (centres undefined)	-2.9	4.0
O=C(CN1CCN(S(=O)(=O)c2cccs2)CC1)Nc1ccccc1Oc1ccccc1	/	11.0
CCCCSC(=O)Nc1ccccc1	-0.1	1.0
CCCCNC(=O)c1c[nH]c2ccc(C)cc2c1=O	-3.1	17.0
C(=C\c1ccccc1)/CNc1ccc(N2CCOCC2)cc1	-1.4	-7.0
O=C(NCc1ccc2c(c1)OCO2)c1ccc2c(c1)C(=O)N(C1CCCCC1)C2=O	3.0	5.0
O=C(c1cccs1)C1C2C(=O)C3OCC(O3)C12 (centres undefined)	-2.0	8.0
C=CCNC(=S)Nc1ccc2cn[nH]c2c1	/	-5.0
O=C(OCC(=O)N1CCCC1)c1ccco1	1.1	-12.0
N#CC(C#N)=NNc1ccc(SC(F)F)cc1	/	30.0
O=C(OC1CCCCC1=O)c1ccc2c(c1)OCO2 (centres undefined)	/	-4.0
O=C(NCCc1nnc2ccc(N3CCCC3)nn12)c1ccccc1	-0.7	5.0
Cc1nc(=O)c(-c2ccccc2)c(C)n1CC1CCCO1 (centres undefined)	/	-6.0
O=C(O)CCCn1cnc2sc3c(c2c1=O)CCCC3	-3.9	1.0
CC(=O)OCc1ccccc1Sc1ccccc1C(=O)NCc1ccccc1	1.9	/
Cc1cc(=O)cc(C)n1-c1ccc(O)cc1	/	12.0
CCCN1CCSC1=Nc1ccccc1F	/	10.0
CC(C)(C)c1cc(C#N)cc(C(C)(C)C)c1O	-2.8	6.0
COc1ccc(S(=O)(=O)c2cnc3cc4c(cc3c2N2CCC(C(N)=O)CC2)OCCO4)cc1	/	-18.0
Cc1ccc(CN2CCC(CNS(=O)(=O)c3cc(-c4cc(C)no4)ccc3C)C2)cc1 (centres undefined)	/	11.0
CCn1c(=O)n(CC)c2cc(NC(=O)CSc3nc4ccccc4[nH]3)ccc21	0.8	-3.0
O=C(COC(=O)c1ccccn1)NC1CCCc2ccccc21 (centres undefined)	/	-8.0
Cc1ccc(/C=N/NC(=O)c2ccccc2NS(=O)(=O)c2cccs2)o1	/	15.0
O=C(CO)c1ccc2cc[nH]c2c1	/	2.0
O=C(O)c1cc(-c2cccs2)nc2ccccc12	-2.5	-3.0
CS(=O)(=O)N(Cc1ccccc1)c1ccccc1C(=O)Nc1cccc(Br)c1	-5.8	8.0
CCOC(=O)c1cncc(C#CCOC(=O)Nc2cc(Cl)cc(Cl)c2)c1	-0.8	/
Brc1ccc(N=Cc2ccc3c(c2)OCCO3)cc1	1.8	-3.0
CN1C(=O)/C(=C(/C#N)C(N)=O)c2ccccc21	0.4	2.0
Cc1ccc2nc(C(C)O)[nH]c2c1 (centres undefined)	1.1	3.0
CSc1ncccc1C(=O)OCc1c(C)noc1C	/	-13.0
CC(C)c1ccc(N(CCc2ccccn2)C(=O)C(C)(C)C)cc1	0.0	/
CCOC(=O)c1oc2cc(OCc3ccc(C(=O)OC)o3)ccc2c(=O)c1-c1ccc(C(=O)OC)o1	4.0	/
Cc1ccc(C=C2C(=O)OC(C)(C(C)(C)C)OC2=O)o1 (centres undefined)	7.7	-2.0
CCN1CCN(C(=O)CS(=O)Cc2nc(-c3ccccc3)oc2C)CC1 (centres undefined)	3.3	17.0
CO/C([O-])=N/c1c[n+](-c2ccc(C)cc2)no1	0.4	1.0
O=C1C=C(Nc2ncn[nH]2)CC(c2cccs2)C1 (centres undefined)	-3.9	15.0
Cc1nc(N)[nH]c(=O)c1Br	/	-45.0
CCC(O)c1ccc2c(=O)c(-c3ccccc3F)coc2c1 (centres undefined)	-0.3	-4.0
CC(C)N(CCC#N)C(=S)Nc1ccc(S(=O)(=O)N2CCCCC2)cc1	/	10.0
CC(C)n1cnc2cc(NCc3ccc(Br)cc3)ccc21	-0.2	0.0
O=C1Cc2ccccc2C(=O)N1c1ccc(Br)cn1	/	-19.0
CCOC(=O)N1CCN(C(=O)CCc2nc3ccccc3[nH]2)CC1	/	6.0
CS(=O)(=O)c1ccccc1-c1nnc(NC(=O)C2CCCCC2)o1	/	10.0
Cc1ccccc1CNC(=O)C1CCCN(S(=O)(=O)N(C)C2CCCCC2)C1 (centres undefined)	/	-26.0
CCOc1cc2c(cc1OCC)C1C(C(=O)N(CC)CC)c3ccccc3C(=O)N1CC2 (centres undefined)	/	13.0
CCOc1ccc(N=C2CSC(=O)N2)cc1	0.5	-1.0

New compounds follow
mol	MgrA-DNA mod	S aureus helic
CCC(=O)N1c2ccc(C)cc2C(OC(=O)c2ccccc2)CC1C (centres undefined)	-2.8	-3.0
CC(C)c1ccc(S(=O)(=O)N2CCOCC2)cc1	-0.7	-2.0
O=C(O)CCC(=O)Nc1ccc(Br)cc1	/	4.0
c1cncc(-c2nc(Nc3ccc4c(c3)OCO4)c3ccccc3n2)c1	/	1.0
Oc1c(Cl)cc(Cl)cc1C=Nc1ccccc1C(F)(F)F	2.0	/
CCN(C(=O)CSc1ncnc2c1sc1ccccc12)c1cccc(C)c1	0.7	6.0
O=c1ccccn1CCOc1ccc(Cl)cc1	-2.1	12.0
O=C(O)CC(CC(=O)Oc1ccccc1N1CCOCC1)c1ccccc1 (centres undefined)	-1.6	/
N#Cc1ccc(C(N2CCSCC2)N2CCSCC2)cc1	1.1	/
Brc1ccc(-c2nn3c(Cc4ccccc4)nnc3s2)o1	/	0.0
Cc1ccc(S(=O)(=O)NCC2COc3ccccc3O2)cc1 (centres undefined)	-2.1	5.0
CCOc1ccccc1NC(=O)NC1(C(=O)NCc2ccco2)CCCCC1	-1.1	7.0
O=C(Nc1ccc(Br)cc1)C1CC(=O)N(c2ccccc2)C(=Nc2ccccc2)S1 (centres undefined)	-1.5	3.0
CC1=NN(c2nc(-c3ccccc3)cs2)C(=O)/C1=C/c1cccs1	/	-10.0
O=c1cc(C(F)(F)F)[nH]c2cc(Cl)ccc12	0.0	/
O=C(CCS(=O)(=O)Cc1ccccc1)Nc1ccc2c(c1)OCCO2	-3.2	-10.0
O=C(CC12CC3CC(C1)CC(CC(=O)NC1=NCCS1)(C3)C2)NC1=NCCS1	4.6	6.0
Cn1c(=O)c(-c2noc(-c3cccs3)n2)cn(-c2ccccc2)c1=O	/	-14.0
O=S(=O)(/N=C/c1ccccc1O)c1ccc(N=Cc2ccccc2O)cc1	-0.1	/
COc1ccc2nc(NC(=O)CN(c3ccc(C)cc3)S(=O)(=O)c3c(C)noc3C)sc2c1	0.6	17.0
Cc1ccc2c(c1)N(S(=O)(=O)c1cc3[nH]c(=O)c(=O)[nH]c3cc1C)CCO2	/	11.0
CC(C)(C)C(=O)OCc1nc(-c2ccc3c(c2)OCCO3)cs1	-1.1	/
O=C(Nc1ccccc1)C1CCN(C(=O)/C=C/c2cn(Cc3ccccc3)nn2)CC1	/	8.0
O=C(O)CCC(=O)c1cccnc1	-7.2	19.0
CCNC(=O)c1ncoc1-c1ccc(C)cc1	/	7.0
Cc1ccc(S(=O)(=O)N2CN(c3ccccc3)c3nc4ccccc4nc32)cc1	/	13.0
Cc1sc(NC(=O)c2ccc3ncsc3c2)nc1-c1ccccc1	/	-12.0
FC(F)(F)c1ccc(-c2noc(Cc3ccccc3)n2)cc1	/	-18.0
Cc1ccc(NC(=O)CSc2nc(-c3ccc4c(c3)OCO4)cn2-c2cccc(Cl)c2)cc1C	-1.9	0.0
COc1cc2c(cc1OC)C(C(=O)NCCN(C)C)C(c1cccs1)N(C)C2=O (centres undefined)	0.8	3.0
COc1cc2c(=O)n(Cc3ccccc3Cl)c(=O)n(CC(=O)N3CC(C)CC(C)C3)c2cc1OC (centres undefined)	2.2	8.0
Cn1nccc1NC(=O)Nc1cccc([N+](=O)[O-])c1	-2.7	/
N#CC(C#N)=C(NC12CC3CC(CC(C3)C1)C2)C(F)(F)F	-2.5	13.0
O=C(/C=C/c1ccccc1)NCCSc1c[nH]c2ccccc12	/	2.0
O=C(CSc1ccc2ccccc2c1)Nc1ncccn1	-2.2	-18.0
CCOC(=S)NC(=O)c1ccccc1	3.0	17.0
Nc1ccc2nc(CCc3ccccc3)[nH]c2c1	-3.4	3.0
O=C(CCc1nc2ccccc2[nH]c1=O)OCc1cccc(Cl)c1	/	6.0
Cc1ccc(Cn2c(/N=C/c3ccc(N(C)C)cc3)nc3ccccc32)cc1	14.5	-36.0
CCOC(=O)c1sc2nc(N3CCCCC3)c3c(c2c1N)CC(C)(C)OC3	-1.4	4.0
CSc1c(CC(=O)Nc2ccccc2)n(Cc2ccccc2)c2ccccc12	-1.1	4.0
O=C1CC(Sc2ccc3ccccc3c2)C2COC1O2 (centres undefined)	7.7	3.0
Cc1nc(NC(=O)CN2CCN(Cc3ccc(F)cc3)CC2)sc1C(=O)N(C)C	-0.5	10.0
CC(C)(C)c1cc(C(=O)CN2CCCCC2)cc(C(C)(C)C)c1O	/	-15.0
CCN(CC)c1ccc(N=c2ccc3ccccc3n2C)cc1	3.5	1.0
O=C(NCC1CCCO1)c1ccc2c(c1)S(=O)(=O)c1ccccc1C2=O (centres undefined)	/	8.0
Cc1cc(C)cc(C(=O)N2CCN=C2c2ccccc2)c1	/	-43.0
COc1cc(/C=c2/sc3nc4cc(C)c(C)cc4n3c2=O)cc(Br)c1OCC(=O)O	8.1	/
Cc1cc(Oc2ncccc2C(=O)O)cc(C)c1Cl	-4.6	/
C=Cc1c(SC)sc(C(N)=O)c1C	0.3	/

(more compounds)
mol	MgrA-DNA mod	S aureus helic
CCNC(=O)NC1CCN(c2cc(C)nc3ncnn23)CC1	/	0.0
O=S(=O)(Nc1ccc(N2CCN(Cc3ccccc3)CC2)cc1)c1ccccc1	-1.8	/
Fc1cccc(Cl)c1CSC1=NCN(C2CC2)CN1	-0.8	/
CC1(C)CC(=O)/C(=C/c2ccco2)CO1	3.8	8.0
Nc1ccc(CCc2nc3ccccc3[nH]2)cc1	1.3	2.0
O=C(Nc1ccc2nc(-c3ccccc3)[nH]c2c1)c1ccco1	-7.1	19.0
COc1cc(C(=O)NC(=S)N2CCCCCC2)cc(OC)c1OC	/	24.0
Cc1cnn2c3c(cnc12)C(=O)c1ccccc1-3	/	-4.0
O=c1[nH]c(-c2cccc(Oc3ccccc3)c2)nc2ccccc12	0.5	/
Cc1oc2nc[nH]c(=O)c2c1C(=O)OC(C(=O)N1CCCCC1)c1ccccc1 (centres undefined)	/	-4.0
CCOC(=O)c1ccc(-c2ccc(/C=C3/C(=O)Nc4ccccc43)o2)cc1	/	-72.0
O=c1ccc(-c2ccc(S(=O)(=O)NCc3ccco3)o2)n[nH]1	/	-2.0
O=C(O)CC(Nc1nc(-c2ccccc2)nc2ccccc12)C(=O)O (centres undefined)	0.7	/
CCOC(=O)c1[nH]c(C)c(C(=O)N2CCCCC2)c1C	/	-6.0
O=C(/C=C/c1ccco1)Nc1ccccc1F	12.9	2.0
O=[N+]([O-])c1cccnc1Oc1cncc(Cl)c1	2.4	/
Cc1ccsc1/C=N/NC(=O)CN1CCSCC1	-2.8	/
CCc1cccc(NC(=O)c2ccc(Cn3c(=O)[nH]c4ccsc4c3=O)cc2)c1	/	-8.0
COc1ccc(NC(=O)CS(=O)CC(=O)Nc2cccc(F)c2)cc1 (centres undefined)	-0.5	-5.0
CCC1=Nc2cc(C(=O)NCC(OC)OC)ccc2Sc2ccccc21	-0.7	7.0
COC(=O)CSc1nnc(-c2ccccc2)n1-c1ccccc1	/	-2.0
CC(=O)Oc1c(Cl)cc(C(=O)O)cc1Cl	-0.1	4.0
N#CCCCSc1ncccc1C(=O)O	/	9.0
CC(=O)Nc1ccc(/C=N/O)cc1	/	9.0
COc1ccc(C(=O)Nc2ccccc2C(=O)NCCC(=O)O)cc1	0.5	-2.0

Filtered by structure: the entries above containing a cyano group.
mol	MgrA-DNA mod	S aureus helic
N#CC(C#N)=NNc1ccc(SC(F)F)cc1	/	30.0
CC(C)(C)c1cc(C#N)cc(C(C)(C)C)c1O	-2.8	6.0
CN1C(=O)/C(=C(/C#N)C(N)=O)c2ccccc21	0.4	2.0
CC(C)N(CCC#N)C(=S)Nc1ccc(S(=O)(=O)N2CCCCC2)cc1	/	10.0
N#Cc1ccc(C(N2CCSCC2)N2CCSCC2)cc1	1.1	/
N#CC(C#N)=C(NC12CC3CC(CC(C3)C1)C2)C(F)(F)F	-2.5	13.0
N#CCCCSc1ncccc1C(=O)O	/	9.0

Next section.
mol	MgrA-DNA mod	S aureus helic
N#Cc1c(C(F)(F)F)cc(=O)[nH]c1SCC(=O)O	/	14.0
Cc1ccc(S(=O)(=O)NC(=O)Oc2cccc3cccnc23)cc1	-1.6	8.0
CC1(C)CC(=O)C2=C(C1)NC1=C(C(=O)CC(C)(C)C1)C2c1cccc(F)c1	0.5	11.0
CCOc1cc(C(C#N)N2CCCCC2)ccc1OC (centres undefined)	1.1	1.0
N#CC1(NC(=O)CSc2nnc(-c3c[nH]c4ccccc34)o2)CCCCC1	/	-5.0
OC(c1ccccc1)(c1ccccc1)c1n[nH]c(=S)n1-c1ccc(F)cc1	1.8	/
